From PubChem
CapD inh – blocks the Bacillus anthracis CapD enzyme; purified CapD enzyme, fluorescence intensity read-out; hits give low values; some hits fall short of the stated cut; z-score (test concentration not listed); hit rate 0.23% among 140,000; AID 492967;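 active = z-score under -4 in either of two replicates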;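 note: stock transfer was 100 nL into about 40 µL; score is relative to mean and spread of the plate; one replicate is shown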
AID504770 – growth inhibitors of E. coli YBA685 in a screen for V. cholerae RctB (chromosome II replication) inhibitors. E. coli YBA685 rctB-dependent plasmid, OD600 growth, 3 h; hits give low values. z-score (test concentration not listed). hit rate 0.27% among 130,000. AID 504770;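 active = z-score under -2 on both plates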;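 note: wells of about 30 µL received 100 nL stock; score is relative to mean and SD of the test wells; the first replicate is given; strong numbers were not always called active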
Numbers without * were called inactive; x = not tested or not shown; & = joins results of further samples.

SMILES,AID504770,CapD inh
O=S(=O)(CC(O)c1ccc(Cl)c(Cl)c1)c1ccc(Br)cc1 (stereo not given),0.1,0.51
COc1ccc(CC(=O)Nc2ccc(-c3cnco3)cc2)cc1OC,-0.55,1.3
Cn1c(C(=O)N/N=C/c2cccs2)cnc1SCc1ccc(Cl)cc1,-0.65,-1.8
O=S(=O)(c1cccc(Cl)c1Cl)N1CCN(c2ccc(C(F)(F)F)cn2)CC1,x,0.81
COc1cc(C2C(C(=O)c3ccco3)=C(O)C(=O)N2CC2CCCO2)ccc1O (stereo not given),0.15,-0.61
O=C1c2ccccc2-c2cccc(C(=O)N3CCCCC3)c21,0,0.3
CN(C)c1ccc(/C=N/n2ncc3ccccc32)cc1,0.55,x
CC12CCC(C(=O)Nc3nccs3)(CC1=O)C2(C)C (stereo not given),0.2,0.36
CCOC(=O)Nc1ccc2c(c1)N(C(=O)C(C)N1CCCC1)c1ccccc1CC2 (stereo not given),x,7
NC(=O)N/N=C/c1cccn1-c1ccc(C(F)(F)F)cc1,0.1,0.23
COc1cc(C2NC(=O)NC(C)=C2C(=O)OC2CCCCCC2)cc(Br)c1O (stereo not given),x,-0.1
Cc1c(N=Cc2ccc(C=Nc3c(C)n(C)n(-c4ccccc4)c3=O)cc2)c(=O)n(-c2ccccc2)n1C,x,0.035
Cc1ccc(C)c(-n2c(CNC(=O)c3ccc(S(=O)(=O)N4CCCC4)cc3)nnc2SCC(=O)Nc2nccs2)c1,x,-0.41
O=C(NNC(=O)c1ccc2nsnc2c1)c1ccc2c(c1)OCO2,x,-0.12
CCN(CC)C(=O)c1cc(O)cc(O)c1,-0.05,0.14

The list goes on, starting with the last two of the part before.
SMILES,AID504770,CapD inh
O=C(NNC(=O)c1ccc2nsnc2c1)c1ccc2c(c1)OCO2,x,-0.12
CCN(CC)C(=O)c1cc(O)cc(O)c1,-0.05,0.14
CC1CCCC(C)N1C(=O)COC(=O)c1ccc(Cl)cc1Cl (stereo not given),0.4,0.33
CC(=O)Nc1cccc(-n2nnc(SCC(=O)c3ccc4c(c3)OCCCO4)n2)c1,-0.4,-0.12
COc1ccc(C(=O)On2c(C3CCCCC3)nc3ccccc3c2=O)cc1,x,0.46
Cc1cc(-c2csc(-c3ccccc3)n2)c(C)n1-c1nccs1,0.25,x
CN1C(=O)c2ccccc2C(C(=O)N2CCCCCC2)C1c1c[nH]c2ccccc12 (stereo not given),0.1,0.15
CC(C)(C)c1cc(-c2cc(C(F)(F)F)n3nc(-c4ccccc4)cc3n2)c2c(c1)C(C)(C)CC2,x,0.79
COC(=O)c1ccccc1S(=O)(=O)C(C)(C)C,-0.55,-0.02
Cc1cc(O)ccc1Sc1ccc(O)cc1C,0.15,0.48
CC(C(=O)c1ccc(Cl)cc1Cl)n1cncn1 (stereo not given),-1.2,0.52
CCc1ccc(S(=O)(=O)Nc2c(C)nc3nc[nH]n3c2=O)cc1,-0.55,0.48
COc1ccc(CCC(C)N2CCN(c3cc(C)ccc3C)CC2)cc1 (stereo not given),0.2,0.32
O=C(C[n+]1cccc(/C=N/O)c1)NC12CC3CC(CC(C3)C1)C2,0,-0.015
O=C(/C=C/C(=O)N1c2ccccc2Sc2ccccc21)c1ccccc1,-0.2,-0.76
COc1ccc(OC)c(NC(=O)CSc2nc3c(c(=O)n2Cc2ccccc2)SC(C)C3)c1 (stereo not given),-0.85,x
Cc1cc(OCC(=O)NC2CCCC(C)C2C)c2c3c(c(=O)oc2c1)CCCC3 (stereo not given),0.1,8.9

Arranged by count of non-hydrogen atoms (lowest first): some entries from above
SMILES,AID504770,CapD inh
COC(=O)c1ccccc1S(=O)(=O)C(C)(C)C,-0.55,-0.02
O=C(/C=C/C(=O)N1c2ccccc2Sc2ccccc21)c1ccccc1,-0.2,-0.76
COc1ccc(C(=O)On2c(C3CCCCC3)nc3ccccc3c2=O)cc1,x,0.46

Quoted from the listing:
CapD inh with Cc1cc(O)ccc1Sc1ccc(O)cc1C reads 0.48
CapD inh with O=C(C[n+]1cccc(/C=N/O)c1)NC12CC3CC(CC(C3)C1)C2 reads -0.015

Going on with the list:
SMILES,AID504770,CapD inh
Cc1cccc(C)c1OCCCN1CCCCC1,0.1,-1.1
O=C(CSc1nnc(-c2cccnc2)n1Cc1ccco1)c1ccc(Br)cc1,x,-0.38
Cc1nn(CCCC(=O)N2CCCCC2)c(=O)c2cc3sccc3n12,-0.55,-0.38
Cc1cc(C)c2c(c1)-c1c(ssc1=S)C(C)(C)N2C(=O)c1ccccc1,x,-0.83
N#Cc1c(Cl)cccc1Oc1ccc(S(=O)(=O)NCCN2CCOCC2)cc1,x,-0.67
CCCn1c(NC(=O)CCCc2nc3ccccc3c(=O)[nH]2)nc2ccccc21,-0.05,x
CC(=O)Nc1ccccc1NC(=O)c1ccccc1,-0.5,0.3
COc1cc2nc(NCCCN3CCCCC3C)n3nc(-c4cccnc4)nc3c2cc1OC (stereo not given),-0.7,-0.47
CC(Oc1ccc(Cl)cc1Cl)/C(N)=N/O (stereo not given),1.8,9.8
CCC1CCCCN1C(=O)CNc1ccc(C)cc1Cl (stereo not given),2,-0.21
CC1=CS/C(=C(/C#N)c2nnc(N3CCOCC3)n2-c2ccccc2)N1c1ccc(OC(F)F)cc1,-0.25,x
Cc1cccc(NC(=O)C2CC2(c2ccccc2)c2ccccc2)c1C (stereo not given),x,-0.14
Cc1ccc(Nc2nc3nonc3nc2Nc2ccc(O)cc2)cc1C,x,-0.055
CCc1ccccc1NC(=O)C(C(C)C)N1C(=O)c2ccccc2C1=O (stereo not given),-0.4,0.41
CC1(C)CC(=O)C2=C(C1)Nc1ccccc1S2,0.2,-0.28
O=C1c2ccccc2C(O)(c2ncc[nH]2)N1CCc1ccccc1 (stereo not given),-2.4,-0.42
O=C1N/C(=N\S(=O)(=O)c2ccccc2)S/C1=C/c1ccco1,-0.15,1.5
O=C(O)CN1C(=O)/C(=C\c2cccc(OC(=O)c3ccccc3)c2)SC1=S,x,-0.48
CCN(Cc1ccncc1)C(=O)c1cccc(C(F)(F)F)c1,-0.8,0.45
O=C(O)c1ccc(NC(=O)c2ccc3c(c2)C(=O)N(Cc2ccco2)C3=O)cc1,-0.2,-7.6*
N#Cc1ccccc1CS(=O)(=O)c1nc2ncccc2[nH]1,-0.3,0.3
Cc1cccc(C(=O)OCC(=O)N2CC(C)CC(C)C2)c1O (stereo not given),2.8,-0.64
COc1ccc(C(=O)CSc2nc3ccccc3o2)cc1,1,0.21
O=C(CSC1CCCCC1)N1CCCCCC1,-0.75,0.055
Nc1c(C(=O)Nc2ccc([N+](=O)[O-])cc2)sc2nc3c(c(-c4ccco4)c12)CCC3,x,0.41
CC1=C(C(=O)OCCc2ccccc2)C(c2ccc(Br)cc2)NC(=O)N1 (stereo not given),x,-0.16
Cn1c(CCC(=O)NNC(=O)/C=C/c2ccco2)nc2ccccc21,x,-0.4
COc1ccc(C(=O)NC2=NCCS2)cc1S(=O)(=O)N1CCCCC1C (stereo not given),-0.65,x
O=C(NCCc1c[nH]c2ccccc12)c1ccc(S(=O)(=O)N2CCCCC2)cc1,-1,-0.9
COc1cc(C2C=C(c3cccs3)Nc3ncnn32)cc(OC)c1OC (stereo not given),x,0.035
CCOC(=O)Nc1nc2ccc(C)cc2[nH]1,-0.25,0.78
COC(=O)c1nn(-c2ccc(OC)cc2)c(=O)cc1Oc1ccccc1,x,0.6
CC(=O)OCC1OC(OC(C)=O)C(NC(=O)c2ccccc2OC(C)=O)C(OC(C)=O)C1OC(C)=O (stereo not given),x,0.93
Cn1c(=O)c(/C(N)=N/OC(=O)c2ccccc2)cn(-c2ccccc2)c1=O,0.4,0.25
CCn1nnnc1SCC(=O)c1ccc(NC(C)=O)cc1,-1.1,x
CCc1cc2c(=O)c3c(cn4ccccc34)oc2cc1OC(C)=O,0.7,7.2
CC(C)n1c2ccc(Br)cc2c2nc3ccccc3nc21,1.7,-0.27
O=C(c1cnn(-c2ccccc2)c1-n1cccc1)N1CCC(Cc2ccccc2)CC1,0.4,-0.05
Cc1ccc2onc(CNC(=O)NC3CCCC3)c2c1,-0.05,-0.22
CC1CCCc2c1nc(N)c(C#N)c2-c1ccccc1 (stereo not given),3.2,x
COc1ccc2cc3c(NCc4ccc(F)c(F)c4)n[nH]c3nc2c1,-0.35,-1.6
COc1ccc(C2Nc3ccccc3C(=O)N2c2ccc(F)cc2)cc1COc1ccc(Cl)cc1 (stereo not given),x,36
COc1ccccc1C(=O)NC(C(C)C)C(C)C,-0.45,-0.04
CC(NC(=O)OCC1CCCN(Cc2ccc3ccccc3c2)C1)c1cccc2c1OCCO2 (stereo not given),x,-0.91
CN[C@@H]1[C@H](OC2[C@H](O[C@H]3[C@H](O)[C@@H](O)[C@H](N=C(N)N)[C@@H](O)[C@@H]3N=C(N)N)O[C@@H](C)[C@]2(O)C=O)O[C@@H](CO)[C@H](O)[C@H]1O (stereo not given in full),0.75,0.18
Clc1ccc2nc(-c3ccccc3)n(OCc3ccccc3Cl)c2c1,x,-0.1
CNC(=S)N1CCc2sccc2C1c1ccc(Cl)cc1 (stereo not given),-0.45,-0.29
Cn1c(=O)c2c(ncn2CC(=O)c2ccccc2)n(C)c1=O,x,-0.06
COC(=O)c1ccc2c(c1)nc(SCc1cc(=O)n3cc(Cl)ccc3n1)n1c3ccccc3nc21,x,0.64
CC(C)(C)N1Sc2ccccc2NC1=S,-0.15&-0.6,0.025
Cc1ccccc1CN1C(=O)C(O)(CC(=O)/C=C\c2ccccc2)c2ccccc21 (stereo not given),-0.4,15
COCCNC(=O)c1ccc(Cn2c(SCC(=O)Nc3cc(C)on3)nc3ccc(Br)cc3c2=O)cc1,x,-0.8
CC1(C)N=C(N)NC(Nc2ccccc2Br)=N1,-0.5,x
CCS(=O)(=O)N(Cc1ccco1)Cc1nc(-c2cccs2)no1,-0.7,x
CCOC(=O)N1CCN(C(=O)CCn2c(=S)[nH]c3ccsc3c2=O)CC1,1.2,-0.42
CSc1nnc2c(n1)OC(/C=C/c1ccco1)Nc1ccccc1-2 (stereo not given),-0.95,-1.7
O=C(O)CC1(CC(=O)NCc2csc(-c3cccs3)n2)CCCCC1,-0.5,28
C/C(N)=C(/C#N)C(=O)Cn1nnc2ccccc2c1=O,-0.1,x
CC(=O)Nc1ccc(SC(=O)c2cc(C)n(Cc3ccc(C)cc3)n2)cc1,-1.1,-0.36
COc1cc(Br)c(CN2CCN(C(=O)OCC3CC4CCC3C4)CC2)cc1OC (stereo not given),x,-0.77

Whole records from above. Order of screens: AID504770	CapD inh
COc1ccc(CCC(C)N2CCN(c3cc(C)ccc3C)CC2)cc1 (stereo not given) is entered as 0.2	0.32
Cc1ccc(C)c(-n2c(CNC(=O)c3ccc(S(=O)(=O)N4CCCC4)cc3)nnc2SCC(=O)Nc2nccs2)c1 is entered as x	-0.41
Cn1c(=O)c2c(ncn2CC(=O)c2ccccc2)n(C)c1=O is entered as x	-0.06
CNC(=S)N1CCc2sccc2C1c1ccc(Cl)cc1 (stereo not given) is entered as -0.45	-0.29
CC(C(=O)c1ccc(Cl)cc1Cl)n1cncn1 (stereo not given) is entered as -1.2	0.52

Continuation.
SMILES,AID504770,CapD inh
O=C(Cn1nnc(-c2ccccc2)n1)N/N=C/c1ccc(N2CCOCC2)s1,-0.35,x
Cn1nc(-c2ccc(N3CCCCC3)c(NC(=O)c3ccccc3)c2)c2ccccc2c1=O,-0.55,-0.27
CCc1nn(CC(=O)NCc2ccc3c(c2)OCO3)c(=O)c2cc3sccc3n12,1.3,0.27
O=S1(=O)CC(Sc2ccccc2)c2ccccc21 (stereo not given),0.45,0.79
COc1ccccc1N1CCN(C(=O)Cn2nc(C(F)(F)F)c3c2CCC3)CC1,-0.1,-0.21
CC(C)(C)C1CCC(=NNc2ccc(C(=O)O)cc2)CC1 (stereo not given),-0.25,x
COc1ccc(-c2nc3c4ccccc4[nH]c(=O)n3n2)cc1,-0.35,2.7
C=CCn1c(=N)n(CC(=O)c2cccs2)c2ccccc21,0,-0.52
CC(=O)N(Cc1cccs1)C1CCOC(C)(C)C1 (stereo not given),-0.85,-0.19
Cc1cc2ncc(C(=O)/C=C/N(C)C)c(C)n2n1,0.25,-5.1*
O=S1(=O)CCC(N=Nc2c(O)n(Cc3ccccc3)c3ccccc23)C1 (stereo not given),1.2,x
COc1ccc(S(=O)(=O)Nc2ccccc2C(=O)NCc2ccco2)cc1,-0.3,0.31
Cc1nnsc1C(=O)N1CCN(C2c3ccccc3-c3ccccc32)CC1,0,0.26
CN(CC(=O)NCc1ccccn1)S(=O)(=O)c1cc(Br)cnc1N,-0.1,-0.32
CSc1n[nH]c(N)c1S(=O)(=O)C(C)C,x,-0.66
O=c1cc(Nc2ccc3c(c2)OCO3)[nH]c(=O)n1-c1ccc(Br)cc1,-0.85,0.51
Cc1nc(C(F)(F)F)ccc1C(=O)NCC1CC1,-0.8,-0.16
c1ccc(-c2ncc(-c3ccncc3)c(-c3cccnc3)n2)nc1,x,0.085
O=C(Cn1ncc2c1-c1ccccc1OC2)NCCc1ccsc1,-0.7,-0.52
Cc1ccc(N(C)S(=O)(=O)c2ccc3[nH]cc(C(=O)NCCCN4CCOCC4)c(=O)c3c2)cc1C,x,2.6
OCC(C#CCN1CCCCC1)NCc1ccccc1 (stereo not given),1.3,0.17
CC1(C)CC(O)CC(C)(C)N1CC(O)COc1ccc(-c2ccccc2)cc1 (stereo not given),-1.1,-0.19
N#Cc1c(-c2ccc(F)cc2)cc(-c2cccs2)nc1SCC(N)=O,x,9.4
